# Rango-impB inh: Rango-importin beta binding inhibition; actives 0.031% (n = 340,000); AID 540263; Potency, µM (titrated, usually from 92.2 µM), for inactives: at the top dose inhibition of complex formation; Q14974; Rango CFP/YFP FRET sensor + importin beta, 45 min; active = rising FRET ratio curve, often small or poorly fitted; inconclusive = mostly compound fluorescence or quenching in the first reads; inactive = flat curves in all reads;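 note: potency is the fitted concentration of half-maximal effect; 0% = DMSO wells and 100% = buffer wells lacking importin beta; nearly all actives have a fitted effect of over 15% in size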
# Target sequence (Q14974 whole entry, looked up): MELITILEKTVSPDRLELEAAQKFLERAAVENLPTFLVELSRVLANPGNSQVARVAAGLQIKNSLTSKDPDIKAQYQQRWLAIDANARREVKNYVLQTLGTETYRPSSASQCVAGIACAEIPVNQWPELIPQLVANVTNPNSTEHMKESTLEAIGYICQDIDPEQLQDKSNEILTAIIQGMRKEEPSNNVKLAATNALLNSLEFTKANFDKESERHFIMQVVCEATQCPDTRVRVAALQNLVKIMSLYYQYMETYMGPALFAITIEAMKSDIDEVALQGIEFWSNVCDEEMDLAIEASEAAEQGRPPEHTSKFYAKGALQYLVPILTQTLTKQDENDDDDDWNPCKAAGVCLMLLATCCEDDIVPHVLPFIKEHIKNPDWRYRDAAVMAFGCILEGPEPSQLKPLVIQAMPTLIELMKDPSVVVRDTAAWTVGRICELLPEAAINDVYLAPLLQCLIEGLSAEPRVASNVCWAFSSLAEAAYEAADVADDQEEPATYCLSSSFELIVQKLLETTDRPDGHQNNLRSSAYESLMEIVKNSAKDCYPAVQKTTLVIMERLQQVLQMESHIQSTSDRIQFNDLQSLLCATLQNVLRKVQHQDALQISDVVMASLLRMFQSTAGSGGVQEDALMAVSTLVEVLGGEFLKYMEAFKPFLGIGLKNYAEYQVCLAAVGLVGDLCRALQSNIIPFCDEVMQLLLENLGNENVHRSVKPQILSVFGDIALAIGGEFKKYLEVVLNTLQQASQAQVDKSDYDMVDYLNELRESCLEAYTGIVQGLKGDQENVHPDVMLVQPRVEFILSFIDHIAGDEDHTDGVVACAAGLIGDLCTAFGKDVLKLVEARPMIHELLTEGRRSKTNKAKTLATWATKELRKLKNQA
#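 FRET biosensor Rango (snurportin 1 IBB between N-terminal EYFP and C-terminal Cerulean), 50 nM in PBS/1 mM DTT/0.02% Tween-20/0.1% BSA, preincubated 5 min RT with compound; 0.125 microM importin beta added, 45 min RT, CFP/YFP FRET ratio read.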
# GLA inh pH 4.5: alpha-galactosidase A (human) inhibition, pH 4.5; P06280; purified enzyme, 4-MU-alpha-Gal fluorescence, pH 4.5; activity change, negative = inhibition, % at 105 µM; 230,000 tested, under 10 active; inconclusive = small, poorly fitted or top-dose-only inhibition, or a rising curve; inactive = flat fitted curve, though single readings scatter; no compound was filed as active;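 note: 0% = full activity with enzyme and -100% = basal without enzyme; dose as in the result columns while the protocol names 77 µM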
# miR-21 FLuc: miR-21 reporter, rising signal. HeLa miR-21 FLuc reporter, luciferase, 48 h. 340,000 tested, under 10 active. Potency, µM (highest dose often 38.3 µM), for inactives: at the top dose reporter change, positive = more light; active = well fitted rising curve with a large enough effect; inconclusive = small, poorly fitted or top-dose-only effect; inactive = no such curve, though single readings can be large or run the other way;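 note: % of control where 0% means no effect; miR-21 action dims this reporter so a rising signal means less miR-21 action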
#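 HeLa cells stably expressing CMV-driven firefly luciferase with a downstream miR-21 binding sequence, endogenously expressing miR-21, were treated with titrations (up to about 40uM final) for 48 hours at 37 degree Celsius. Luciferase luminescence was read after lysis.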
# Rango dissoc inh: inhibitors of RanGTP-induced Rango-importin beta complex dissociation; O95149+P62826; Biochemical FRET Rango-importin beta, RanGTP-induced dissociation; Potency, µM (series often up to 46.1 µM), for the others: at the highest dose activity change, negative = inhibition; actives 0.071% (n = 340,000); AID 540253; active means falling FRET ratio curve, often poorly fitted, with flat reads before Ran was added; inconclusive means other falling curves, or compound fluorescence or quenching; inactive means flat or rising ratio curve;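 note: potency is the fitted concentration of half-maximal effect; % of control where 0% means no effect; nearly all actives have a fitted effect of over 45% in size; -100% = wells without RanGTP and RCC1; the record marks most hits as doubtful in a second field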
#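 Recombinant Rango FRET biosensor (EYFP–snurportin 1 IBB–cerulean CFP10) at 0.1 uM premixed with 0.25 uM importin beta in PBS, 1 mM DTT, 0.02% Tween-20, 0.1% BSA. Compound added 5 min; RanGTP-RCC1 (0.6 uM Ran, 2 mM GTP, 0.2 uM RCC1) then triggers release, read at 45 min.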
# The depositor's hits bear a star; ? = inconclusive; nt = no result given; [ ] = another dose, or the depositor's remark.
SMILES | Rango-impB inh | GLA inh pH 4.5 | miR-21 FLuc | Rango dissoc inh
Cc1c(NC(=O)CSc2nnc(-c3cccnc3)n2N)c(=O)n(-c2ccccc2)n1C | 1.0% | nt | nt | 11.1%
COc1cccc2cc(C(=O)C3=C(O)C(=O)N(CCN4CCOCC4)C3c3cccs3)oc12 (centres undefined) | 1.0% | -2.1 | -6.1% | -10.8%
CCN(CC)S(=O)(=O)c1ccc(Cl)c(NC2=NCCCCC2)c1 | -4.4% | 3.5 | 1.5% | 4.6%
COc1cccc(OC)c1C(=O)OCC(=O)NCCCc1ccccc1 | -1.1% | nt | -24.8% | -6.5%
C=CCn1c(-c2cc(-c3ccccc3)sc2N)n[nH]c1=S | 3.0% | -2.7 | -10.3% | 1.1%
CCOC(=O)N1CCN(C(=O)c2cn(CC(C)C)c(=O)c3c2c2ccccc2n3C)CC1 | ? | 14.0 | -2.4% | -5.3%
O=C(N/N=C/c1ccc(O)c(O)c1)N/N=C/c1ccc(O)c(O)c1 | 3.5% | nt | -56.9% | -10.0%
COc1ccc(C)cc1N(CC(=O)NC(C)c1ccccc1)S(C)(=O)=O (centres undefined) | 0.3% | nt | -1.4% | -2.8%
Cc1ccc(N(CCCCN2C(=O)c3ccccc3C2=O)C(=O)c2cccs2)cc1 | 3.0% | -2.1 | -8.5% | 1.8%
O=C(NCCc1ccc(Cl)cc1)c1ccc2nc(N3CCOCC3)sc2c1 | -0.6% | nt | -13.3% | 24.7%
O=C(NCc1ccc(F)cc1)N[C@@H](Cc1ccccc1)C(=O)O | -0.5% | -4.2 | -1.5% | 8.0%
Oc1ccc(Cl)c2cccnc12 | 8.9% | 5.9 | nt | -15.2%
O=c1c2ccccc2n2nnnc2n1-c1ccccc1 | 0.2% | 2.6 | -10.4% | 0.8%
CCN(CC)C(=O)Oc1ccc(Br)cc1C(=O)Nc1ccc(F)c(Cl)c1 | 11.2% | -26.5 | 1.1% | -12.0%
CC1CN(C(=O)c2cc(S(=O)(=O)N3CCCC3)c(Cl)cc2Cl)CC(C)O1 (centres undefined) | 3.7% | -8.9 | 6.4% | 7.3%
CN(CP(=O)(O)C(O)c1ccccc1)S(C)(=O)=O (centres undefined) | 2.2% | -5.2 | -4.5% | 2.4%
O=C(CSc1nc(N2CCCCC2)nc(N2CCCCC2)n1)N1CCN(c2ccccc2)CC1 | 5.4% | 0.6 | -1.9% | 0.5%
CC(C)(C)NC(=O)N1CCN(c2nc3ccc(Cl)cc3s2)CC1 | -0.7% | nt | -23.3% | 9.6%
CC(C)c1ccc(C(=O)N2CCN(CCO)CC2)cc1 | -0.3% | -21.9 | -1.4% | 2.2%
COc1ccccc1OCCOCCN1CCCC1 | -2.5% | nt | -0.1% | -0.3%
O=C(CN1CCC(C(=O)c2ccc(Cl)cc2)CC1)Nc1ccc2c(c1)OCCO2 | 0.3% | -0.9 | -0.1% | 2.3%
O=C(NCc1ccccc1)C1=C[C@H](C2CC2)C[C@H](OCc2ccc(CO)cc2)O1 | ? | 0.0 | -2.0% | -4.6%
CS(=O)(=O)N(CC(=O)N/N=C/c1cc2c(cc1Br)OCO2)c1ccccc1Br | 3.3% | -4.4 | -15.0% | -8.4%
Cc1cc(C)cc(OCC(=O)Nc2ccc(N3CCCCC3)cc2)c1 | 0.6% | nt | nt | -6.6%
CN(C(=O)COc1ncnc2ccccc12)C1CCCCC1 | -2.9% | nt | nt | -4.7%
O=C(CNc1ccc(Br)cc1)c1ccc(O)cc1 | -0.4% | -6.7 | -1.5% | 0.9%
O=[N+]([O-])c1ccc(Cl)c(S(=O)(=O)Nc2ccc(-c3ccc(N4CCOCC4)nn3)cc2)c1 | 0.4% | nt | nt | -1.8%
COc1cc(NC(=O)c2ccccn2)cc(OC)c1OC | -0.9% | -22.1[21.1 µM] | 4.5% | 1.4%
COCCN(CC1CCCN(C2Cc3ccccc3C2)C1)C(=O)CCC(N)=O (centres undefined) | -2.1% | nt | 0.6% | 4.4%
O=C(Nc1ccc(F)cc1)c1csc(Cc2ccccc2)n1 | 1.4% | -14.6 | -33.8% | -1.0%
CNS(=O)(=O)c1cn(CC(=O)NCc2cccc(OC)c2)cc1S(=O)(=O)NC | 5.0% | nt | 2.6% | -0.2%
Cc1c(C)n(CCCN(C)C)c2ncnc(Nc3ccccc3)c12 | -6.2% | nt | -18.9% | -2.8%
COc1ccc(NC(=S)NNC(=O)c2cccs2)cc1 | 1.2% | 7.0 | -60.5% | 15.0%
Cc1ccc(NC(=O)CSc2nnnn2-c2ccc3c(c2)OCO3)cc1C | -1.4% | 1.1 | -2.6% | -17.7%
O=C(COc1ccc(Cl)cc1)NCc1ccc(F)cc1 | -0.2% | nt | 0.1% | -0.5%
CC(C)(C)OC(=O)N1CCN(C(=O)c2[nH]cnc2C(=O)Nc2cccc(Cl)c2)CC1 | 0.0% | nt | nt | 1.5%
C=CCN=C1S/C(=C/c2ccc([N+](=O)[O-])cc2)C(=O)N1CC=C | -6.1% | 1.6 | -1.4% | 2.0%
COCCn1c(C)c(C)c(S(=O)(=O)c2ccccc2)c1N | ? | nt | 0.1% | -11.5%
Cc1nc(SCC(=O)NC2(C#N)CCCC2)n(CC(C)C)c1C | -2.7% | nt | nt | 14.1%
Cc1cccn2c(=O)c(/C=C(\C#N)C(=O)NCc3ccco3)c(N3CCC(C(N)=O)CC3)nc12 | ? | 5.9 | -9.3% | -27.6%
COCCNC(=O)c1ccc(Cl)c(S(=O)(=O)Nc2cccc(C)c2C)c1 | 0.2% | nt | -0.5% | -8.5%
CCc1c(C(=O)N/N=C/c2ccsc2)csc1C | -2.5% | 8.7 | -46.1% | -20.0%
COc1ccc(N2CC(NS(=O)(=O)c3cccnc3)CC2=O)cc1 (centres undefined) | -1.2% | nt | nt | 7.5%
Cc1ccc(NC(=O)COC(=O)Cn2ccc(=O)[nH]c2=O)cc1C | 2.4% | nt | nt | 12.4%
Cc1ccc(-n2nnnc2/C=C\Nc2cc(C)on2)cc1 | 0.3% | 7.9 | -0.1% | -0.9%
C=CCSc1nc(-c2ccccc2)c(C#N)c(=O)[nH]1 | -6.6% | 6.2 | -0.4% | 9.5%
OCC[C@@H]1C[C@H](O)[C@@H](O)[C@]2(OCCc3ccccc32)O1 | 2.9% | nt | 3.8% | 0.0%
C/C=C/c1ccc(Oc2nnnn2-c2ccc(C(=O)O)cc2)c(OC)c1 | 2.2% | -6.9 | -12.1% | 15.4%
Cc1noc(C)c1COc1ccc(C(=O)N2CCCC(C(F)(F)F)C2)cc1 (centres undefined) | -0.8% | nt | -0.9% | -9.7%
CCCCc1cc(=O)oc2c(CN(C)C)c(O)ccc12 | ? | ? | -0.5% | ?
COc1ccc(C(=O)Nc2ccc(-c3n[nH]c(=S)o3)cc2)cc1OC | 4.2% | nt | -3.4% | -2.8%
CCOc1ccc(-c2nc(C)sc2CC(=O)O)cc1 | 0.0% | 3.6 | -1.8% | 25.4%
COC(=O)c1cc(C(=O)NCCN2C(=O)S/C(=C\c3cccs3)C2=O)cc([N+](=O)[O-])c1 | 0.9% | 10.7 | -8.9% | -0.5%
Cc1ccc(C(C)C)cc1S(=O)(=O)NC1CC(C)(C)NC(C)(C)C1 | -3.0% | nt | -6.8% | 12.1%
CCNc1ccc(C(=O)OCC(=O)N2CCCC2)cc1[N+](=O)[O-] | 4.7% | nt | -9.3% | -2.8%
Cc1ccc(/C=C/C(=O)OCC(=O)NCCN2C(=O)CSC2=O)cc1 | 2.3% | 4.4 | -8.2% | 5.8%
CC(=O)N1Cc2cc(N)ccc2Oc2ccccc21 | -0.7% | -11.7 | -3.0% | 7.9%
CCc1nc2ccccc2c(C(=O)OCc2nnc(-c3ccccc3)o2)c1C | 2.0% | -6.9 | -17.3% | -5.4%
COc1ccc(C(=O)N/N=C(\C)CC(=O)N2CCN(C=O)CC2)cc1 | -1.9% | -2.5 | -13.5% | -1.0%
O=C1NC2(Nc3ccccc31)C(=O)Nc1ccc(Br)cc12 (centres undefined) | ? | -3.7 | 18.3% | -7.8%

# More compounds.
SMILES | Rango-impB inh | GLA inh pH 4.5 | miR-21 FLuc | Rango dissoc inh
COc1cc(/C=C2/C(=N)N3N=C(CC(=O)N4CCOCC4)SC3=NC2=O)ccc1OC(C)c1ccccc1 (centres undefined) | ? | nt | -8.5% | -23.3%
CCOC(=O)N1CN(C(=O)OCC)CN(C(=O)OCC)C1 | 3.4% | -1.4 | 0.5% | 22.6%
CC(C)(C)NC(=O)CN(Cc1cccs1)C(=O)CCN1CCc2ccccc21 | 0.6% | 1.5 | -1.4% | 1.1%
CN(C(=O)COc1ccccc1C(=O)NCc1ccccc1)C1CCS(=O)(=O)C1 (centres undefined) | -1.6% | nt | nt | 0.2%
O=C(CSCC(=O)N1CCOCC1)Nc1nc(-c2ccccc2)cs1 | -0.6% | 3.7 | -38.2% | 1.0%
Cc1ccc(S(=O)(=O)NCCCNS(=O)(=O)c2ccc(C)cc2)cc1 | -5.0% | nt | nt | 6.6%
COc1ccc(OC)c(N(CC(=O)NCCSC2CCCCC2)S(=O)(=O)c2ccccc2)c1 | 4.0% | nt | 8.2% | 41.5%
Cc1nc2sccn2c(=O)c1S(=O)(=O)N1CCN(c2cccc(Cl)c2)CC1 | 0.2% | nt | 0.2% | -16.0%
O=C(N1CCCCC1)N1CCN(S(=O)(=O)c2ccccc2)CC1 | 0.2% | nt | 0.2% | -7.7%
COc1ccc(OC)c(C2=NOC(C(=O)Nc3cc(C)on3)C2)c1 (centres undefined) | -3.8% | -9.2 | -7.1% | -3.1%
O=c1c2c(ncn1Cc1ccccc1)nc1n2CCC1 | -0.6% | 6.3 | -0.8% | 14.3%
COc1cc(-c2noc(C)c2-c2ccc(N(C)C)nc2)cc(OC)c1OC | 2.5% | nt | 14.9% | -8.8%
CCC(=O)Nc1ccc(Cl)c(NC(=O)C(C)C)c1 | -1.8% | -13.1 | 0.8% | 0.2%
COc1ccc(CNC(=S)Nc2ccc(S(N)(=O)=O)cc2)cc1 | -2.0% | 1.4 | -2.1% | 9.5%
CCCc1nnc(SCC(=O)Nc2cc(C)on2)n1CCOC | 1.0% | nt | -3.4% | -23.8%
CC(C)OC(=O)c1ccc(S(N)(=O)=O)o1 | -3.4% | -9.6 | -12.8% | 3.4%
CC(C)NC(=O)COc1coc(CN2CCN(Cc3ccccc3)CC2)cc1=O | -4.3% | nt | 3.4% | 8.2%
Cc1ccccc1CCNC(=O)C1CCC(=O)N(C2CCCCCC2)C1 (centres undefined) | -1.7% | nt | -2.1% | 7.2%
COc1ccc(CCn2c(=N)c(C(=O)NC3CCCC3)cc3c(=O)n4cccc(C)c4nc32)cc1 | ? | nt | 3.8% | -14.1%
CCSCCOC(=O)C1=C(C)NC(=O)NC1c1cccc(OC)c1OC (centres undefined) | 3.5% | 3.6 | -1.3% | -11.9%
CCOc1ccc(OCC)c(NC(=O)C2CCCN(S(=O)(=O)c3c(C)n[nH]c3C)C2)c1 (centres undefined) | 0.2% | -3.3 | -15.2% | -14.5%
CCCOC1CCCN(Cc2nc(-c3cnccn3)no2)C1 (centres undefined) | -2.6% | -27.0 | -1.3% | 16.4%
CCC(=O)N1CCc2cc(Br)c(S(=O)(=O)CCC(=O)NCCOC)cc21 | 7.7% | nt | nt | -0.9%
CCN(Cc1ccccc1)C(=O)C1CCN(CC2CC=CCC2)CC1 (centres undefined) | 4.6% | -1.5 | -5.5% | -0.2%
C(=N\n1cnnc1)/c1nc2ccccc2[nH]1 | -2.6% | -7.9 | 3.9% | -8.8%
O=C(NCCc1c[nH]c2ccccc12)C(=O)Nc1ccccc1 | 2.6% | 8.6 | -30.4% | -10.5%
COC(C[C@@H]1O[C@@H]1[C@@H](O)[C@H](C)OCc1ccccc1)OC | -1.3% | 2.1 | 0.0% | 0.2%
CCNC(=O)n1nccc1C(C)Oc1ccccc1 (centres undefined) | -6.5% | -3.0 | -7.9% | 6.3%
COc1ccc(NC(=O)CN2C(=O)COc3ccc(C)cc32)cc1 | 0.1% | nt | 2.6% | -11.1%

# High-throughput results (PubChem)

# Not all compounds are listed. The share of hits here may be higher or lower than overall.
